Screens as filed in PubChem.
ClpP mod: qHTS Assay for Activators of ClpP | Potency, µM (series often up to 57.5 µM), without a hit: at the top dose activity change, negative = active | purified B. subtilis ClpP, FRET peptide cleavage, 20 min | actives 1.9% (n = 340,000) | ATP-dependent Clp protease proteolytic subunit (Bacillus subtilis (strain 168)), P80244 | AID 651965, 2013; active = well fitted falling curve with a large enough effect; inconclusive = small, poorly fitted or top-dose-only effect; inactive = no such curve, though single readings can be large or run the other way; note: potency is the fitted concentration of half-maximal effect; the source files actives as falling curves though it sought activators and does not explain the sign; nearly all actives have a fitted effect of over 65% in size; many hits overshoot -100%
Target sequence (P80244 whole entry, looked up): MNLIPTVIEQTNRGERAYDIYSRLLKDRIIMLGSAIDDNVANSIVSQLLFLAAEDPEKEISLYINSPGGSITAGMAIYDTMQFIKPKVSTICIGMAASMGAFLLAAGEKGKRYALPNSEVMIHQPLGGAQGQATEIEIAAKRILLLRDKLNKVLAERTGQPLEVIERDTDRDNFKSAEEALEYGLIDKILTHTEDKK
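FRET quenching reversal measured ClpP activation: 10 microg/mL B. subtilis ClpP at pH 8 with the FRET-FV decapeptide, read at 430 nm after 320 nm excitation. The 20-min minus 0-min signal was scaled between DMSO/no-enzyme wells and ADEP (5.8 microM final).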
Menin-MLL FL inh: inhibitors of human menin-MLL interaction, wild-type MLL peptide; Fluorescence polarization, fluorescein-MLL peptide displacement from menin; FP activity change, % at 61.4 µM; 290,000 tested, under 10 active; AID 1766; inconclusive = falling polarisation curve, or a change in total fluorescence; inactive = total fluorescence flat and polarisation flat or rising; no compound was filed as active; the % refers to the polarisation; negative = inhibition;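 note: % of control where 0% means no effect; inhibitors lower the polarisation; unlabelled MLL peptide was the positive control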
PINK1 expr mod: PINK1 expression modulation; PINK1 immunofluorescence, high-content cytometry, 24 h; Potency, µM (doses to about 76.6 µM), without a hit: top-dose activation (PINK1 increase), most hits filed as activators; actives 0.2% (n = 410,000); active = well fitted activation curve with a large enough effect; inconclusive = small, poorly fitted or top-dose-only effect; inactive = flat fitted curve, though single readings scatter; cell line not stated here;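 note: potency is the fitted concentration of half-maximal effect; % of control where 0% means no effect; nearly all actives have a fitted effect of over 65% in size; a mitochondrial uncoupler was the plate control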
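Fluorescence from anti-PINK1 antibody, together with nuclear and cell stains, was scanned on a laser-scanning cytometer. Before staining, stable-line cells were incubated 24 hours with compounds at 5 concentrations; primary antibody 12 h at 10 degrees C.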
TRPV1 potentiator: enhances activation of the human vanilloid receptor TRPV1. Q8NER1. TRPV1-expressing cells, Fluo-8 calcium influx, capsaicin EC20 potentiation; host cell line not named in the record; control for the full effect not named in the record. potentiation, % at 8.33 µM. actives 0.02% (n = 320,000); active means potentiation above 80%; inconclusive means 30% to 80%; inactive means below 30%; note: 0% is about no effect
Target sequence (Q8NER1 whole entry, looked up): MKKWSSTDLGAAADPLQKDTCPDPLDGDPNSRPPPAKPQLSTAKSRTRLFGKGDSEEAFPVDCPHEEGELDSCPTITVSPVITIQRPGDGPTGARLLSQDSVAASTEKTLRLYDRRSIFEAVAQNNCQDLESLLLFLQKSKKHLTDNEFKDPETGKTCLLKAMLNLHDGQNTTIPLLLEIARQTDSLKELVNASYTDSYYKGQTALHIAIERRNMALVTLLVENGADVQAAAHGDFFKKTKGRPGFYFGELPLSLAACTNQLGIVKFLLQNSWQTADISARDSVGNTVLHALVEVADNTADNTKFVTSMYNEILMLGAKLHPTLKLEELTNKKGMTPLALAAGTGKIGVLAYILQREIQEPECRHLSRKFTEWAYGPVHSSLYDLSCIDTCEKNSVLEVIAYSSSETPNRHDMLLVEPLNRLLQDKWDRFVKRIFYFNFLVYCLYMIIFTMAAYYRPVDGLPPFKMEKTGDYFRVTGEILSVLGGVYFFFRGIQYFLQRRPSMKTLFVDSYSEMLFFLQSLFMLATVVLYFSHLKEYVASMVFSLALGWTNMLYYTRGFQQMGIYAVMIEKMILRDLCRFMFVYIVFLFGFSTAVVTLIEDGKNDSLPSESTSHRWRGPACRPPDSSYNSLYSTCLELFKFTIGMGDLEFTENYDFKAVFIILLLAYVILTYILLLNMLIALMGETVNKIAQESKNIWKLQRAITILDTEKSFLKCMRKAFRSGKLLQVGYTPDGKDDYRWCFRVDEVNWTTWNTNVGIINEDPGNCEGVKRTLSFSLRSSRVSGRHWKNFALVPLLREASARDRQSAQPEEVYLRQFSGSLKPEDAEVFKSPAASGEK
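Fluo-8 calcium influx in TRPV1-expressing cells, kinetic read (ex 480/em 520 nm). Compound added and read 3 min for agonist activity, followed by capsaicin at EC20 final and 2 min further read for enhancement.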
TRPML1 inh: human mucolipin-1 channel inhibition; Q9GZU1; TRPML1-inducible cells, Ca2+ dye fluorescence, FDSS; active compounds read low; inhibition of EC80 agonist-evoked calcium signal; activity change, negative = inhibition, % (concentration not given with the values); actives 0.02% (n = 390,000); AID 624415; in the data active means activity change below about -50%; inconclusive means about -30% to -50%; inactive means above about -30%;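 note: stimulus is agonist 54-4 at its EC80 concentration; % is set by controls: 0 for no effect and ±100 for the full control effect; the text of the record puts the active cut at -80%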
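TRPML1-DL cells, Tet-induced overnight (~16 h, 37 °C) at 1,500 cells/well, were loaded with Ca8 no-wash dye plus quencher for 45-90 min at room temperature. Compounds were pinned during FDSS kinetic reading; agonist 54-4 at EC80 (4 uM final) then added.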
Sfp inh: inhibitors of Bacillus subtilis Sfp phosphopantetheinyl transferase; Biochemical Sfp PPTase activity, qHTS; Potency, µM, for the others: max response, negative = inhibition, most hits filed as inhibitors; actives 3.5% (n = 310,000); active = well fitted inhibition curve with a large enough effect; inconclusive = small, poorly fitted or top-dose-only effect, or another doubt; inactive = no such curve, though single readings can be large or run the other way;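 note: the enzyme is Sfp with the accession as filed and its product quenches rhodamine fluorescence; potency is the fitted concentration of half-maximal effect; 0% = enzyme reaction without inhibitor and -100% = no enzyme wells; top concentration of the series not given in the record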
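Buffer: 50 mM Hepes-Na pH 7.6, 10 mM MgCl2, 0.01% Nonidet P-40, 0.01% BSA. Enzyme 15 nM, pre-exposed to compound 15 min; substrates then added and fluorescence change tracked over 30 min.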
TRPML1 ag: activates the human TRPML1 channel. Q9GZU1. TRPML1-expressing cells, Ca2+ dye fluorescence, FDSS; host cell line not named in the record; reference of the full effect not given here. AID 624414. activation, % (concentration not given with the values). actives 0.12% (n = 410,000); in the data active = activation above about 50%; inconclusive = about 30% to 50%; inactive = below about 30%; note: 0% is about no effect; the text of the record puts the active cut at 80%
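Agonist activity was taken from a 110 s kinetic Ca2+ dye read on the FDSS after pinning compounds onto TRPML1-DL cells. The cells were seeded at 1,500/well with Tet inducer, incubated about 16 h, then dye-loaded at room temperature.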
Starred values were filed as active, the others as inactive; ? = inconclusive; nt = not tested or not shown; & = joins results of further samples; [ ] = another dose, or the depositor's remark.

SMILES	TRPML1 ag	Sfp inh	PINK1 expr mod	TRPV1 potentiator	TRPML1 inh	Menin-MLL FL inh	ClpP mod
CC(=O)N1c2ccc(S(=O)(=O)N3CCCCCC3)cc2CC1C(=O)NCc1ccc(Cl)cc1 (centres undefined)	-0.5	nt	11.2%	nt	-3.0	nt	0.7%
C#CCSc1nc(-c2cccs2)ccc1C#N	0.1	-9.4%	4.0%	6.1	-8.4	1.9	31.6µM*
CC(C)Cc1nc(SCC(=O)N2CCOCC2)c2c(=O)n(C)c(=O)n(C)c2n1	-0.4	5.8%	0.1%	-18.9	11.8	-3.8	0.6%
CC(=O)CN1C(=O)NC(c2ccccc2)(c2ccccc2)C1=O	-0.1	5.3%	0.5%	1.2	61.4	-7.8	nt
O=C(Nc1ccc(F)c(Cl)c1)c1cncs1	-0.2	3.0%	0.0%	-16.9	5.1	3.1	nt
CN1C[C@@H]2[C@@H]3C(=O)N(Cc4ccccc4)C(=O)[C@@H]3[C@](C)(C1=O)N2C(=O)c1ccc(Br)cc1	-0.4	nt	2.0%	nt	-5.5	nt	-2.4%
CN1CC(=O)N(CCOc2ccccc2)C1=O	-0.5	11.5%	0.5%	-0.1	2.4	2.7	-1.8%
O=C(CSc1ccccc1)NCc1ccccc1	-0.2	11.8%	-0.6%	-1.6	2.3	-0.5	0.6%
CCSc1nnc(NC(=O)Cn2cnc3c2c(=O)n(C)c(=O)n3C)s1	-0.5	4.2%	0.2%	-2.3	-5.0	0.5	nt
Cc1ccccc1N1CC(c2nnc(NC(=O)c3ccco3)s2)CC1=O (centres undefined)	-0.9	nt	-0.9%	nt	14.2	nt	1.2%
COCOc1cccc(CN2CCC2(C)C(=O)Nc2cc(OC)ccc2OC)c1 (centres undefined)	-0.6	nt	1.9%	nt	nt	nt	0.1%
COc1ccccc1NC(=O)/C(C#N)=C/c1cc([N+](=O)[O-])ccc1N1CCCC1	1.1	7.2%	0.1%	-10.1	8.6	?	0.9%

Going on with the list:
SMILES	TRPML1 ag	Sfp inh	PINK1 expr mod	TRPV1 potentiator	TRPML1 inh	Menin-MLL FL inh	ClpP mod
CC(=O)Nc1cccc(N2C(=O)CC(Cc3ccccc3)C2=O)c1 (centres undefined)	-0.1	-1.9%	1.5%	-2.5	7.0	-3.3	0.9%
CCCCC(=O)NC(=S)Nc1ccccc1C(=O)Nc1ccccc1	-0.6	16.5%	-6.6%[38.3 µM]	-5.2	-2.3	2.1	?
CC(=O)Nc1ccc(C)c(NC(=S)Nc2ccc(F)cc2)c1	-0.7	-8.8%	1.1%	7.9	2.6	-2.4	0.6%
CCOCCCNC(=O)c1cn(CC(C)C)c(=O)c2c1c1ccccc1n2C	-0.7&1.1	4.7%	-1.4%&2.6%	-15.2	-10.9&-8.7	0.1	39.8µM*
Cc1ccc(CSc2nc3sc(C)c(C)c3c(=O)n2Cc2ccco2)cc1	-0.4	?	nt	-1.1	-1.3	2.9	0.4%
O=C(Nc1ccc2c(c1)OCCO2)NC1CCCCC1	-0.1	5.1%	-1.2%	2.4	-21.0	3.2	-2.5%
Cc1c(C)c2ccc(OC(C)C(=O)NC3CC(C)(C)NC(C)(C)C3)cc2oc1=O (centres undefined)	-0.4	15.2%	0.0%	-4.4	25.8	nt	nt
Cc1ccc(NC(=O)CSc2nccn2Cc2ccc3c(c2)OCO3)c(C)c1	1.8	nt	2.0%	nt	-3.4	nt	0.4%
O=C(NCCS(=O)(=O)N1CCN(c2ccccc2F)CC1)c1ccco1	-0.4	nt	1.4%	1.4	-4.9	nt	0.5%
COc1ccc(NC(=O)CSc2nc(C)cc(C)c2C(=O)Nc2cccc(C)c2)cc1	2.2	nt	-2.0%	nt	-11.2	nt	-2.3%
Cc1ccc2c(c1)CCCN2C(=O)c1c(C)noc1C	-0.3	-9.1%	?	8.5	-7.3	-0.7	-3.0%
Cc1ccc(SC[C@H](C)CN2CCC(NC(=O)OCc3ccccc3)CCC2=O)cc1 (some centres undefined)	0.1	nt	1.1%	nt	nt	nt	-2.8%

More results
SMILES	TRPML1 ag	Sfp inh	PINK1 expr mod	TRPV1 potentiator	TRPML1 inh	Menin-MLL FL inh	ClpP mod
Cc1ccc(S(=O)(=O)c2nc(-c3cccs3)oc2NCCCN(C)C)cc1	0.1	4.4%	0.2%	4.0	-12.5	-0.6	-13.8%
O=C(COC(=O)C1CCN(S(=O)(=O)c2cccc3cccnc23)CC1)c1ccc(F)cc1	0.7	8.1%	-0.1%	-2.7	-0.4	1.5	1.2%
COc1ccccc1C(OC(=O)c1cccs1)C(=O)NCC1CCCO1 (centres undefined)	-0.1	10.4%	nt	3.7	8.1	4.3	2.0%
Cc1ccoc1C(=O)NCCNC(=O)c1occc1C	0.3	nt	4.0%	23.3	-1.9	nt	nt
Cc1ccc2nc(-c3ccc(SCC(=O)Nc4nnc(C)s4)nc3)[nH]c2c1	2.4	-8.1%	-3.9%	1.9	-0.9	6.0	-1.2%
Cc1ccc(S(=O)(=O)N2CCCCC2)cc1NC(=O)C1CCC1	-0.1	nt	-0.1%	4.3	-1.7	nt	-1.0%
COCCNC(=O)C(c1ccc(C)cc1)N(C(=O)CCC(=O)Nc1ccccn1)c1ccc(C)cc1 (centres undefined)	-1.4	26.0%	1.2%	16.6	26.3	2.8	-2.3%
N#Cc1c(/N=C/c2ccco2)oc(-c2ccccc2)c1-c1ccccc1	-0.1	-2.8%	1.5%	?	5.3	-2.0	?
CC1(C)CC(Cc2nc(=S)[nH][nH]2)C(=O)O1 (centres undefined)	0.3	20µM*	1.5%	6.4	-7.9	9.0	0.7%
O=C(O)C1C2C=CC(C2)C1C(=O)Nc1ccc(C(=O)N2CCCCC2)cc1 (centres undefined)	0.3	-14.5%	8.3%[38.3 µM]	8.1	7.2	-0.1	0.2%
COc1ccc(N2CC(C(=O)Nc3nnc(C4CCCCC4)s3)CC2=O)cc1 (centres undefined)	-0.2	1.4%	-0.9%	4.9	-18.5	nt	-0.7%
O=c1c(CCc2ccccc2)nc2cncnc2n1-c1ccccc1	nt	-3.1%	4.1%	nt	nt	-3.6	nt

Further compounds
SMILES	TRPML1 ag	Sfp inh	PINK1 expr mod	TRPV1 potentiator	TRPML1 inh	Menin-MLL FL inh	ClpP mod
c1ccc2c(c1)oc1c(NCCN3CCOCC3)ncnc12	-0.2	7.6%	3.5%[38.3 µM]	1.2	5.9	4.9	-8.7%
Cc1ccc(Cl)c(NC(=O)COC(=O)c2nn(-c3ccccc3)cc2O)c1Cl	1.2	nt	-1.8%	nt	12.0	nt	-1.9%
COCCCNC(=O)C1CCN(C(=O)c2oc3cc4sc(N(C)C)nc4cc3c2C)CC1	-0.5	15.4%	0.5%	10.9	-5.2	-1.7	-27.7%
O=C(COC(=O)c1c(F)cccc1Cl)NCC1CCCCC1	-0.1	nt	1.7%	nt	16.2	nt	1.3%
Cc1ccc2cc(CN(CCCN(C)C)C(=O)NCc3ccccc3)c(=O)[nH]c2c1C	0.1	14.4%	-1.8%	?	13.0	-5.2	?
O=C(Cc1cccs1)N[C@@H]1c2ccccc2CC[C@H]1OCc1ccccc1	-0.2	nt	0.6%	nt	-14.3	nt	1.8%
CC(=O)c1ccc(NC(=O)N2CCc3ccccc3C2)cc1	1.7	11.0%	1.8%	-8.0	14.6	-0.1	nt
O[C@@H]1CN(CC2CCCCC2)[C@@H](c2ccccc2)C[C@H]1n1cc(-c2ccc(F)cc2)nn1	1.2	nt	?	nt	3.5	nt	-5.6%
Cc1[nH]c(C)c(S(=O)(=O)N2CCN(c3ccccc3F)CC2)c1C(=O)N1CCCCC1	-0.1	15.8%	-0.5%	11.6	-2.9	-8.4	-0.3%
COc1cc2ccccc2cc1C(=O)OCC(=O)c1c(N)n(C)c(=O)n(C)c1=O	-0.5	nt	3.9%	-2.8	?	nt	31.6µM*
O=c1cc(CN2CCN(S(=O)(=O)c3ccc4c(c3)OCCO4)CC2)c2ccc(O)cc2o1	1.7	1.3%	1.0%	3.5	14.6	3.9	16.3%
Clc1cccc(-n2ncc3c(NCCC4=CCCCC4)ncnc32)c1	0.1	nt	2.3%	nt	20.2	nt	-7.9%

Next section.
SMILES	TRPML1 ag	Sfp inh	PINK1 expr mod	TRPV1 potentiator	TRPML1 inh	Menin-MLL FL inh	ClpP mod
Cc1ccccc1C(=O)NC(NCc1ccco1)C(Cl)(Cl)Cl (centres undefined)	2.6	12.8%	-1.0%	13.9	-4.0	3.0	0.6%
O=C(/C=C/c1ccc(Cl)cc1)NC(=S)Nc1ccc(N2CCOCC2)c(Cl)c1	0.6	?	-2.8%	-1.5	28.8	0.0	1.1%
NS(=O)(=O)c1ccc(CCNC(=O)C2CCN(S(=O)(=O)c3ccccc3)CC2)cc1	0.0	6.1%	0.4%	9.7	12.1	-4.9	28.2µM*
CC(C)c1ccc(N(CC(=O)NN=C2CCN(C)CC2)S(=O)(=O)c2ccccc2)cc1	-0.1	-13.0%	-2.1%	-14.8	2.6	-0.6	nt
COc1ccc2oc(=O)c(NC(=O)C3CCCCC3)cc2c1	0.1	25.5%	4.7%[38.3 µM]	2.4	-1.5	9.0	?
COc1ccc(C2C(C(=O)O)CCC(=O)N2c2ccc(OC)cc2)cc1 (centres undefined)	-0.2	14.2%	nt	-1.1	-3.4	3.6	1.0%
COC(=O)c1nn(-c2ccccc2)c(Cl)c1/C=N/OCc1ccc(Cl)cc1Cl	-0.4	3.1%	2.1%	-7.5	18.6	-0.9	0.8%
Cc1ccc(S(=O)(=O)N2CCOC2CNC(=O)C(=O)NCc2ccncc2)cc1 (centres undefined)	0.8	9.4%	0.9%	-4.1	31.3	-0.6	nt
CC(Sc1nnc(-c2ccc(OC(F)F)cc2)n1N)C(=O)NCC1CCCO1 (centres undefined)	-1.0	nt	0.6%	0.4	8.5	nt	-4.3%
COC(=O)c1ccc(C2C(C#N)=C(C)NC3=C2C(=O)CC(C)(C)C3)cc1 (centres undefined)	1.3	10.4%	0.6%	-10.0	2.3	-1.3	22.4µM*
COc1cc(C2NC(=O)NC(c3ccccc3)=C2C(C)=O)cc([N+](=O)[O-])c1O (centres undefined)	1.0	-4.8%	1.8%	-20.3	-4.2	4.5	0.7%
CCOC(=O)N1CCN(CC(O)COc2ccc(OC)cc2C(C)(C)C)CC1 (centres undefined)	-0.1	2.9%	3.8%	-11.0	15.8	2.7	0.8%
